Rango-impB inh: inhibitors of Rango-importin beta complex formation; Rango CFP/YFP FRET sensor + importin beta, 45 min; actives 0.031% (n = 340,000); Q14974; Potency, µM (doses to about 92.2 µM), for inactives: at the highest dose inhibition of complex formation; active = rising FRET ratio curve, often small or poorly fitted; inconclusive = mostly compound fluorescence or quenching in the first reads; inactive = flat curves in all reads;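 further: potency means the concentration at half of the fitted maximal effect; 0% = DMSO wells and 100% = buffer wells lacking importin beta; nearly all actives have a fitted effect of over 15% in size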
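Inhibition scored from the CFP 486 nm/YFP 530 nm FRET ratio 45 min after adding 0.125 microM importin beta to 50 nM Rango biosensor preincubated 5 min with compound (room temperature, PBS with DTT, Tween-20, BSA). No-importin wells as positive control.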
Rango dissoc inh: inhibitors of RanGTP-induced Rango-importin beta complex dissociation; AID 540253; Potency, µM (series often up to 46.1 µM), without a hit: at the highest dose activity change, negative = inhibition; actives 0.071% (n = 340,000); Biochemical FRET Rango-importin beta, RanGTP-induced dissociation; active means falling FRET ratio curve, often poorly fitted, with flat reads before Ran was added; inconclusive means other falling curves, or compound fluorescence or quenching; inactive means flat or rising ratio curve;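 further: potency means the concentration at half of the fitted maximal effect; % of control where 0% means no effect; nearly all actives have a fitted effect of over 45% in size; -100% = wells without RanGTP and RCC1; the record marks most hits as doubtful in a second field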
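Rango (0.1 uM)–importin beta (0.25 uM) complex; RanGTP-RCC1 trigger; 45 min RT; CFP/YFP FRET read.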
miR-21 FLuc: raises the signal of a miR-21 reporter. Potency, µM (highest dose often 38.3 µM), inactives show top-dose reporter change, positive = more light. HeLa miR-21 FLuc reporter, luciferase, 48 h. 340,000 tested, under 10 active. AID 2288; active = well fitted rising curve with a large enough effect; inconclusive = small, poorly fitted or top-dose-only effect; inactive = no such curve, though single readings can be large or run the other way;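 further: % of control where 0% means no effect; miR-21 action dims this reporter so a rising signal means less miR-21 action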
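Using DMEM plus 10% FBS, HeLa miR-21-FLuc cells are incubated with test compounds (final up to about 40uM) for 48 hours; firefly luciferase signal is then imaged following reagent-mediated lysis.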
GLA inh pH 4.5: inhibitors of human alpha-galactosidase A at pH 4.5; P06280; purified enzyme, 4-MU-alpha-Gal fluorescence, pH 4.5; activity change, negative = inhibition, % at 105 µM; 230,000 tested, under 10 active; inconclusive = small, poorly fitted or top-dose-only inhibition, or a rising curve; inactive = flat fitted curve, though single readings scatter; no compound was filed as active;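 further: 0% = full activity with enzyme and -100% = basal without enzyme; dose as in the result columns while the protocol names 77 µM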
Target sequence (P06280 whole entry, looked up): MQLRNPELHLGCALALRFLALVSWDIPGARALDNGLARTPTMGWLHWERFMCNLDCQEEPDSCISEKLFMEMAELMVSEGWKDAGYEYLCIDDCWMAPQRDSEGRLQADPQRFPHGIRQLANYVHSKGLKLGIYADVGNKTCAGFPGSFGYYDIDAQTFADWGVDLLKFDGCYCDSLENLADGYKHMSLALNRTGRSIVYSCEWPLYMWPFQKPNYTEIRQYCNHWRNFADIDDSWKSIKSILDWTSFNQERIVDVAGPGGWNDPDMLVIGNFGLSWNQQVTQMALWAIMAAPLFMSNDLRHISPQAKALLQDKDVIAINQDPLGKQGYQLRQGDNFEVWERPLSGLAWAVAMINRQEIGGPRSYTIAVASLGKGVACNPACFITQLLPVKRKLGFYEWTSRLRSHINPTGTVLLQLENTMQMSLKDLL
Numbers without * were called inactive; u = inconclusive; x = no result given. This is a subset; the hit share may differ from the screen's.

SMILES	Rango-impB inh	Rango dissoc inh	miR-21 FLuc	GLA inh pH 4.5
CC1CCC(=NNC(=O)Cc2ccccc2)CC1 (stereo unspecified)	-3.0%	0.4%	-19.7%	-18.7
O=C(NCc1ccco1)c1cc2sccc2n1Cc1ccc(F)cc1	-2.0%	-11.2%	-6.6%	-9.7
COc1ccccc1N1CCN(C(=O)c2sc3nc(-c4ccc(F)cc4)cn3c2C)CC1	-2.3%	13.4%	25.3%	-9.8
C=CCN1C(=O)CN=C1NCc1ccccc1	0.3%	1.0%	-2.7%	-5.4
Cc1ccc(Nc2nc3ccccc3o2)cc1F	-0.6%	10.9%	-48.0%	-2.6
Cc1cc(OCC(=O)NC(C)(C)C)ccc1Cl	-1.2%	-23.3%	-30.7%	0.8
Cc1ccc2[nH]cc(CCNC(=O)Nc3ccccc3)c2c1	1.2%	20.2%	5.3%	-9.2
O=C(c1cc2cc(Br)ccc2o1)N1CCCC1	3.8%	-10.0%	-49.0%	x
CCCn1c(NC(=O)c2ccccc2)nc2ccccc21	-0.3%	23.5%	-5.2%	-1.8
CCCNC(=O)c1c(O)c2cccc3c2n(c1=O)CCC3	-0.3%	3.1%	-2.1%	x
C/C(=N\NC(=O)COc1cccc(Cl)c1)c1ccc2c(c1)OCCO2	-0.4%	7.9%	-9.4%	-2.1
Cc1ccc(CNC(=O)CCS(=O)(=O)Cc2ccc(C)cc2)cc1	-0.4%	-10.1%	-1.5%	x
O=C(Nn1c(SCc2ccc([N+](=O)[O-])cc2)nc2ccccc2c1=O)c1ccc(F)cc1	-0.1%	-14.1%	-32.8%	2.1
Cc1c(C)c2c(OCC(=O)N3CCC(C(=O)NCC(C)C)CC3)cc3c(c2oc1=O)CCC(C)(C)O3	0.0%	13.8%	-6.8%	x
CCN(c1ccc(C)c(C)c1)S(=O)(=O)c1ccc2c(c1)CCN2C(=O)CCC(=O)O	-4.6%	1.7%	-3.6%	10.4
FC(F)(F)c1cccc(-c2nnc(-c3ccccc3)c(N3CCOCC3)n2)c1	0.3%	11.1%	-19.9%	-3.6
C[C@H](CO)N1C[C@H](C)[C@@H](CN(C)CC2CC2)Oc2c(NC(=O)Cc3ccccc3)cccc2C1=O	-4.1%	4.6%	x	x
Cc1ccccc1OCCCn1c(CO)nc2ccccc21	-2.0%	-0.6%	-31.5%	-1.3
CN(C)c1ccc(C(=O)Nc2ccc(CN3CCS(=O)(=O)CC3)cc2)cc1	2.2%	20.1%	-41.0%	-7.1
Cc1cccc(NC(=S)NNC(=O)c2ccccc2OC(F)F)c1	-0.4%	1.1%	-13.3%	-23.2
CN1c2ccccc2N(C)C1(C)c1cccc2ccccc12	u	u	2.1%	2.9
Cc1ccc2c(c1)C(=C(C#N)C#N)C(=O)N2CCN1CCOCC1	u	-1.5%	-5.9%	0.2
Cn1c(=O)c([N+](=O)[O-])c(NCc2ccccc2Cl)c2ccccc21	7.0%	2.0%	-19.9%	0.8
COc1ccc(Cn2c(SCc3ccccc3C)nc3cc(OC)c(OC)cc3c2=N)cc1	x	x	-0.5%	-0.6
O=C(Nc1ccc(S(=O)(=O)C(F)F)cc1)c1cccc(S(=O)(=O)N2CCOCC2)c1	1.9%	3.5%	24.9%	-8.7
COc1ccc(CCNC(=O)c2ccncc2)cc1OC	0.8%	u	-2.9%	5.8
CCc1nnc(NC(=O)C2COc3ccccc3O2)s1 (stereo unspecified)	-0.6%	-7.5%	-29.2%	2.7
O=C(NC(=O)c1cccc(Cl)c1)OC[C@@H]1CCCN2CCCCC12 (stereo partly specified)	-4.8%	-7.7%	-2.4%	-2.5
Cc1noc(C)c1COC(=O)COc1ccc(C#N)cc1	0.2%	-5.2%	-1.6%	3.0
Cn1c(SCC(=O)N2CC(=O)Nc3ccccc32)nc2ccccc2c1=O	0.3%	-9.5%	x	x
CC(C)(C(=O)c1ccccc1)/[N+]([O-])=C/c1ccccc1F	1.1%	-8.2%	x	x
CCC1CCCCN1S(=O)(=O)c1ccc(S(=O)(=O)N(Cc2ccccn2)CC2CCCO2)cc1 (stereo unspecified)	-2.1%	13.2%	-1.4%	-1.2
CCN1C(=O)C(=O)N(CC(=O)N(C)CC(=O)Nc2ccccc2C(F)(F)F)C1=O	-1.0%	0.7%	x	x
Cc1ccn(-c2n[nH]c(C)c2[N+](=O)[O-])n1	-4.2%	10.6%	-0.3%	3.2
COc1ccc(C(CNC(=O)c2oc3ccc(Br)cc3c2C)N2CCCCC2)cc1 (stereo unspecified)	-1.7%	1.46µM*	-4.3%	-14.7
CCCCSc1nc2c([nH]1)c(=S)n(C)c(=O)n2C	-2.7%	1.4%	x	x
COc1ccc(NS(=O)(=O)c2cc([N+](=O)[O-])ccc2N/N=C/c2c(C)[nH]c3ccccc23)cc1	0.2%	-3.6%	x	x
COc1ccccc1/C=C/C=N/N1CCN(Cc2ccccc2)CC1	0.1%	11.6%	-2.8%	-4.2
O=C(NCc1cn2ccccc2n1)c1ccco1	u	1.7%	-13.4%	8.3
COc1cc(/C=C(/C#N)c2nc3ccccc3[nH]2)ccc1OCc1ccc(C(=O)O)o1	u	u	-11.0%	13.8
CCOC(=O)C1(CCCc2ccccc2)CCN(C(=O)CN2C(=O)CSC2=O)CC1	0.0%	-2.9%	-0.6%	1.5
CCCOc1ccc(-c2c(C(=O)N/N=C(\C)c3ccncc3)nnn2-c2nonc2N)cc1	0.3%	-18.1%	-0.4%	x
N#Cc1cc(C#N)c(SCC(=O)NCC2CCCO2)nc1N (stereo unspecified)	-0.2%	13.0%	-1.6%	x
CCN1C(=O)C(CC(=O)Nc2c(C)cccc2C)Nc2cc(S(=O)(=O)N(C)C)ccc21 (stereo unspecified)	-0.3%	-9.3%	-1.8%	3.2
COC(=O)c1cccc(NC(=O)c2ccc(S(=O)(=O)N3CCN(C)CC3)cc2)c1	u	-0.7%	-1.9%	-4.4
COc1ccc(C2CC(c3cc(OC)ccc3OC)n3nnnc3N2)cc1 (stereo unspecified)	-1.5%	5.0%	-5.0%	-14.0
COc1ccc(OC)c(S(=O)(=O)N2CCC(C(=O)NCCC3=CCCCC3)CC2)c1	u	25.1%	-10.0%	2.6
O=C(Cc1ccccc1)N/N=C/c1cccn1-c1ccc([N+](=O)[O-])cc1	-1.3%	-7.4%	5.2%	-3.3
CCOc1cc(C(=O)NCCCNC(=O)c2cc(OCC)c(OCC)c(OCC)c2)cc(OCC)c1OCC	-1.0%	0.7%	x	x
CC(=O)NCC1=C(NC(C)=O)C2CC1C(C)(C)C2C (stereo unspecified)	x	x	-4.3%	-2.1
Cc1cc(S(=O)(=O)Nc2cc(C)c(O)c(C)c2)c(C)s1	0.5%	15.0%	-0.3%	-0.8
CCOC(=O)Cc1csc(NC(=O)/C=C/c2ccc(Br)o2)n1	3.9%	16.5%	29.8%	2.3
COc1ccc2nc(N3CCCC(C(=O)NCCc4ccc(OC)c(OC)c4)C3)sc2c1 (stereo unspecified)	0.7%	0.2%	-0.2%	x
C=CCN(C(=O)CCC(=O)Nc1cc(C)on1)C(C(=O)NC1CCCC1)c1cccnc1 (stereo unspecified)	-3.6%	1.7%	0.2%	-11.1
O=C(Nc1cccc2cccnc12)c1cccc(Cl)c1	0.6%	8.1%	-50.8%	x
COc1c(Br)cc(Br)cc1/C=N/n1c(C)nnc1C	3.1%	-16.9%	17.4%	0.5
CCCOc1cc(NCc2ccccc2)c2ncn(C(C)C)c2c1	1.5%	-8.0%	x	x
CCOc1ccccc1NC(=O)NCCc1c[nH]c2ccccc12	-0.7%	-0.4%	6.3%	x
COc1ccc(S(=O)(=O)N(CC(=O)NCC2CCCO2)c2ccc(F)cc2)cc1OC (stereo unspecified)	0.5%	10.2%	-2.3%	-2.3
CCN(CC(=O)Nc1ccccc1C(F)(F)F)C(=O)CCS(=O)(=O)c1ccc(Cl)cc1	-1.0%	21.4%	x	x

Next section:
SMILES	Rango-impB inh	Rango dissoc inh	miR-21 FLuc	GLA inh pH 4.5
CC1CCCCN1S(=O)(=O)c1ccc(C(=O)Nc2sccc2C(N)=O)cc1 (stereo unspecified)	-1.0%	-0.2%	-35.0%	-8.3
CCN1CCN(c2nc3ccccc3nc2C(C#N)C(=O)OCc2ccccc2)CC1 (stereo unspecified)	u	u	-2.9%	1.2
Cc1nc2cc(F)ccc2n1C1CCN(C(=O)c2ccc(F)cc2F)CC1	0.2%	5.3%	12.4%	-7.1
O=C(NC1CCSC1=O)c1ccc(Oc2cccc(C(F)(F)F)c2)nc1 (stereo unspecified)	-1.6%	-2.7%	-0.3%	1.1
O=C(CCN1c2ccccc2Sc2ccccc21)Nc1ccccc1	-3.7%	2.5%	2.7%	1.1
NC(=O)CC(NC(=O)c1ccccc1)c1ccc(NCCN2CCCCC2)c([N+](=O)[O-])c1 (stereo unspecified)	-5.2%	-6.3%	-0.9%	x
O=C(N/N=C/c1ccco1)c1cccc([N+](=O)[O-])c1	0.3%	-3.4%	2.5%	-3.5
O=C(NNS(=O)(=O)c1ccc(F)cc1)c1ccc2c(c1)OCO2	1.5%	11.6%	-11.3%	x
C=CCSc1nnc(-c2nnc(SCC=C)n2CC)n1CC	-1.6%	2.2%	-5.5%	-8.6
CCCn1c(NCc2ccc3c(c2)OCO3)nc2ccccc21	-3.5%	6.9%	-43.8%	-2.3
O=C(CNc1ccc(C(F)(F)F)cc1)Nc1cccc(S(=O)(=O)N2CCCC2)c1	1.0%	-23.8%	x	x
CC(C)n1c(SCC(=O)Nc2nc3ccccc3s2)nc2c1c(=O)n(C)c(=O)n2C	-4.2%	3.9%	x	x
CC(=O)c1ccc(NC(=O)CSCCO)cc1	2.4%	-3.8%	-19.8%	-1.1
Cc1cccc(-c2noc(CCCC(=O)NCC3CCCO3)n2)c1 (stereo unspecified)	-1.9%	9.4%	5.4%	x
COC(=O)C1CCN(C(=O)c2ccc(NC(C)=O)cc2)CC1	2.2%	0.4%	-8.1%	7.2
COc1ccc(CNC(=O)CCCN2C(=O)NC3(CCCC3)C2=O)cc1	-0.3%	31.3%	x	x
C/C(=N\Nc1nccnc1Cl)c1ccc(F)cc1	-5.1%	16.4%	-52.5%	-6.4
N#Cc1ccc(C23CC4CC(CC(C4)C2)C3)[nH]c1=O	-6.5%	2.2%	0.4%	-7.2
CC(=O)c1cccc(NC(=O)C2CCCN(S(C)(=O)=O)C2)c1 (stereo unspecified)	-0.3%	22.6%	-3.8%	-1.5
O=C(N/N=C/c1ccccn1)c1cc([N+](=O)[O-])cc([N+](=O)[O-])c1	0.8%	-2.4%	-0.8%	-3.5
CCN(CC(=O)Nc1c(F)cccc1F)C(=O)c1cccc(S(=O)(=O)N2CCCCCC2)c1	u	8.3%	x	x
COc1cc(NC(=O)COC(=O)CSc2ccc3ccccc3c2)c(C)cc1[N+](=O)[O-]	-4.1%	4.0%	-0.6%	u
CCc1c(C)sc(NC(=O)OC)c1C(=O)N1CCOCC1	2.5%	-8.1%	-10.6%	-1.7
COc1ccc(/C=C2\SC(=NCc3ccccc3)NC2=O)cc1	3.8%	7.0%	2.4%	5.7
Cc1c(/C=N\NC(=O)c2csc3ccccc23)cnn1C	1.8%	14.3%	-10.4%	-4.3
Cc1ccc(NC(=O)COC(=O)/C=C/c2ccccc2)cc1S(=O)(=O)N1CCOCC1	-0.1%	-6.4%	-0.3%	-9.4
O=C(CNC(=O)c1cccc(Br)c1)N/N=C/c1cc(Br)cc(Br)c1O	u	u	1.8%	-5.3
COc1cccc(N2CCN(C(=O)c3ccc(CS(=O)Cc4ccc(Cl)cc4)o3)CC2)c1 (stereo unspecified)	-1.4%	35.3%	15.5%	x
CCOc1ccc(/C=N/OCC(=O)Nc2cc(S(=O)(=O)N3CCOCC3)ccc2OC)cc1	0.9%	12.6%	x	x
Cc1ccc(NC(=O)NCC(c2cccnc2)N2CCOCC2)cc1 (stereo unspecified)	-0.2%	-1.2%	-3.7%	2.4
COc1ccc(N(C(=O)Cn2nnc(-c3ccc(Cl)cc3)n2)C(C(=O)NCC2CCCO2)c2ccc(C)cc2)cc1 (stereo unspecified)	0.8%	5.7%	-4.6%	0.7

A draw from above in order of length of the SMILES, high to low:
SMILES	Rango-impB inh	Rango dissoc inh	miR-21 FLuc	GLA inh pH 4.5
COc1cccc(N2CCN(C(=O)c3ccc(CS(=O)Cc4ccc(Cl)cc4)o3)CC2)c1 (stereo unspecified)	-1.4%	35.3%	15.5%	x
COc1ccc(CNC(=O)CCCN2C(=O)NC3(CCCC3)C2=O)cc1	-0.3%	31.3%	x	x
N#Cc1ccc(C23CC4CC(CC(C4)C2)C3)[nH]c1=O	-6.5%	2.2%	0.4%	-7.2

Compound activity from PubChem.
